GLA inh pH 4.5: qHTS Assay for Inhibitors of Human alpha-Galactosidase at pH 4.5; Alpha-galactosidase A (Homo sapiens), P06280; purified enzyme, 4-MU-alpha-Gal fluorescence, pH 4.5; activity change, negative = inhibition, % at 105 µM; 230,000 tested, under 10 active; AID 1467, 2008; inconclusive = small, poorly fitted or top-dose-only inhibition, or a rising curve; inactive = flat fitted curve, though single readings scatter; no compound was filed as active;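 note: 0% = full activity with enzyme and -100% = basal without enzyme; dose as in the result columns while the protocol names 77 µM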
Target sequence (P06280 whole entry, looked up): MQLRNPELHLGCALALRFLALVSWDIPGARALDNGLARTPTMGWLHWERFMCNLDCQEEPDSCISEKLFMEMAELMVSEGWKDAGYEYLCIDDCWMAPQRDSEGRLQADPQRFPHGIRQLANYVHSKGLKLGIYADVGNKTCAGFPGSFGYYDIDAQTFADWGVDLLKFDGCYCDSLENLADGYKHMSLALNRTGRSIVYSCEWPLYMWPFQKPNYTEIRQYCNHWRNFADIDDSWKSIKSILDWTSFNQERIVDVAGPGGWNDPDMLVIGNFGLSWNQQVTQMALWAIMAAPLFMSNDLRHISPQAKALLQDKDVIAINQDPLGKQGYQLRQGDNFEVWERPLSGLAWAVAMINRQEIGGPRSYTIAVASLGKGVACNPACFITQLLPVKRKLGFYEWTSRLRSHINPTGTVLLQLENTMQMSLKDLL
Rango dissoc inh: qHTS Assay for Inhibitors of RanGTP induced Rango (Ran-regulated importin-beta cargo) - Importin beta complex dissociation; Potency, µM (titrated, usually from 46.1 µM), inactives show at the top dose activity change, negative = inhibition; Biochemical FRET Rango-importin beta, RanGTP-induced dissociation; 340,000 tested, 0.071% active; Snurportin-1 (Homo sapiens) + GTP-binding nuclear protein Ran (Homo sapiens) + Importin …; active means falling FRET ratio curve, often poorly fitted, with flat reads before Ran was added; inconclusive means other falling curves, or compound fluorescence or quenching; inactive means flat or rising ratio curve;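 note: potency is the fitted concentration of half-maximal effect; % of control where 0% means no effect; nearly all actives have a fitted effect of over 45% in size; -100% = wells without RanGTP and RCC1; the record marks most hits as doubtful in a second field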
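FRET read at 45 min, room temperature: inhibitors block the CFP/YFP signal rise when RanGTP (0.6 uM Ran, 2 mM GTP, 0.2 uM RCC1) frees Rango (0.1 uM) from importin beta (0.25 uM). Pre-read after 5 min compound exposure flags interference.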
Rango complex inh: qHTS Assay for Inhibitors of Rango (Ran-regulated importin-beta cargo) - Importin beta complex formation | Rango CFP/YFP FRET sensor + importin beta, 45 min | Potency, µM (series often up to 92.2 µM), for inactives: top-dose inhibition of complex formation | Importin subunit beta-1 (Homo sapiens), Q14974 | 340,000 tested, 0.031% active; active = rising FRET ratio curve, often small or poorly fitted; inconclusive = mostly compound fluorescence or quenching in the first reads; inactive = flat curves in all reads;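 note: potency is the fitted concentration of half-maximal effect; 0% = DMSO wells and 100% = buffer wells lacking importin beta; nearly all actives have a fitted effect of over 15% in size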
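Inhibition scored from the CFP 486 nm/YFP 530 nm FRET ratio 45 min after adding 0.125 microM importin beta to 50 nM Rango biosensor preincubated 5 min with compound (room temperature, PBS with DTT, Tween-20, BSA). No-importin wells as positive control.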
miR-21 reporter: qHTS Assay for Modulators of miRNAs and/orActivators of miR-21; Potency, µM (top dose mostly 38.3 µM), for inactives: at the top dose reporter change, positive = more light; HeLa miR-21 FLuc reporter, luciferase, 48 h; 340,000 tested, under 10 active; active = well fitted rising curve with a large enough effect; inconclusive = small, poorly fitted or top-dose-only effect; inactive = no such curve, though single readings can be large or run the other way;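 note: % of control where 0% means no effect; miR-21 action dims this reporter so a rising signal means less miR-21 action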
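HeLa miR-21-FLuc reporter line, endogenous miR-21; 2000 cells/well in DMEM/10% FBS; compound titration up to ~40uM final, 48 h, 37 degree Celsius; luciferase detection reagent, 15 min lysis, CCD luminescence.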
Active calls of the source: *; u = inconclusive; x = no result given; & = joins results of further samples; [ ] = remark or other dose. Not all compounds are listed; count on the stated rates, not on these rows.

SMILES | GLA inh pH 4.5 | Rango dissoc inh | Rango complex inh | miR-21 reporter
O=C(NC(=S)NCc1ccc(Cl)cc1)c1ccco1 | x | 47.6% | 4.8% | x
O=C(NCc1ccccc1)C(c1ccco1)N(C(=O)c1ccccn1)c1ccc(F)cc1 (centres undefined) | -1.9 | -4.0% | -2.4% | 2.4%
COc1ccc(-n2nc(C)c3sc(C)nc3c2=O)cc1 | -8.0 | 3.3% | 1.9% | -21.5%
O=C(c1ccc2c3n(nc2c1)-c1ccccc1CO3)N1CCOCC1 | -2.4 | -2.7% | 1.9% | -38.8%
O=[N+]([O-])c1ccccc1CN1CCN(Cc2ccc3ccccc3c2)CC1 | x | 9.0% | -0.9% | 11.2%
Cc1ccc(C(=O)N/C(=C\c2ccco2)C(=O)NCCCN2CCOCC2)cc1C | x | 9.8% | -0.5% | -2.9%
OC(CN1CCOCC1)C12CC3CC(CC(C3)C1)C2 (centres undefined) | 3.2 | -2.1% | 2.6% | -6.3%
COc1ccc(C(C(=O)NC2CCCC2)N(C(=O)c2ccoc2C)c2ccc(C)c(C)c2)cc1 (centres undefined) | -4.5 | -3.2% | 0.0% | -15.4%
O=C(CSc1nnc(Cc2ccccc2)o1)Nc1ccc2c(c1)OCO2 | 0.5 | 8.6% | 0.8% | -35.4%
COc1ccc(N2CCN(C(=O)c3cccc(S(=O)(=O)N4CCCc5ccccc54)c3)CC2)cc1 | x | 4.8% | -2.6% | x
S=C(NCC1CCCO1)Nc1ccc(Cl)c(Cl)c1 (centres undefined) | -7.6 | -5.3% | 4.5% | -9.7%
CCOc1ccc(OCCCC(=O)N2CCN(S(=O)(=O)c3ccccc3C#N)CC2)cc1 | x | -5.2% | 0.8% | x
CC(=O)OCC(=O)Nc1ccccc1C | 5.4 | 2.6% | -2.0% | 7.5%
c1ccc2c(c1)cnc1ccccc12 | 2.5 | -2.5%&-22.5% | 3.9%&-1.9% | -5.2%
Cc1ccc(Cl)cc1NC(=S)NN | 9.1 | 0.6% | -0.2% | 25.2%
Cc1ccsc1CNS(=O)(=O)c1ccc(F)cc1 | x | -2.6% | 0.1% | -0.1%
CCOC(=O)c1sc(NC(=O)CCN2CCCCCC2)c(C(=O)OCC)c1C | -6.2 | -7.1% | 7.9% | -11.1%
O=C(NCc1ccc(F)cc1)C(c1ccco1)N(C(=O)c1csnn1)c1ccccc1 (centres undefined) | x | 0.0% | 0.2% | 3.8%
O=C(c1ccc(Cn2c(=O)[nH]c3ccccc3c2=O)cc1)N1CCN(c2ccc(F)cc2)CC1 | -1.0 | -2.1% | -1.4% | 25.3%
COc1cccc(NC(=O)COC(=O)c2nc(Cl)ccc2Cl)c1 | 2.1 | 1.4% | 0.2% | -1.9%
Cc1nc(SCc2ccccc2)c2oc3ccccc3c2n1 | -10.1 | -7.8% | 0.3% | -0.1%
CCO[C@@H]1OC(C(=O)N2CCN(Cc3ccccc3)CC2)=C[C@H](c2csc3ccccc23)[C@H]1CCCO | -2.1 | -17.0% | -3.1% | 2.2%
O=C(Nc1nccs1)NC1CCCCC1 | 7.3 | u | 2.7% | -17.0%
COc1ccc2c(c1)c(CC(=O)Nc1ccc(C)cc1)c(C)n2C(=O)c1ccc(Cl)cc1 | 1.0 | -4.1% | 10.0% | -3.7%
Cc1c(Cl)c([N+](=O)[O-])nn1Cc1ccc(C(=O)Nc2ccc(Cl)cn2)o1 | 2.8 | -6.8% | -0.5% | -3.2%

Some of the entries above in a different format.
O=C(NCc1ccc(F)cc1)C(c1ccco1)N(C(=O)c1csnn1)c1ccccc1 (centres undefined)
  GLA inh pH 4.5: x	Rango dissoc inh: 0.0%	Rango complex inh: 0.2%	miR-21 reporter: 3.8%
O=C(c1ccc(Cn2c(=O)[nH]c3ccccc3c2=O)cc1)N1CCN(c2ccc(F)cc2)CC1
  GLA inh pH 4.5: -1.0	Rango dissoc inh: -2.1%	Rango complex inh: -1.4%	miR-21 reporter: 25.3%

The list continues.
SMILES | GLA inh pH 4.5 | Rango dissoc inh | Rango complex inh | miR-21 reporter
CCN(Cc1ccccc1)Cc1cccc([N+](=O)[O-])c1 | 2.2 | -5.8% | -3.9% | -1.8%
O=C(NCc1ccc(F)cc1)C(c1ccccc1)N(CC1CCCO1)C(=O)Cn1nnc2ccccc21 (centres undefined) | -7.2 | -2.2% | 6.6% | 1.3%
COC(=O)c1c(-c2ccc(N(C)C)cc2)sc2ccc(OC)cc12 | x | u | u | x
O=C1CCCCCN1Cc1nnc(SCc2nc3ccccc3s2)n1-c1ccccn1 | 3.6 | -13.7% | -0.3% | -55.5%
CN(c1ccc(F)cc1)S(=O)(=O)c1ccc(Cl)c(C(=O)Nc2ccncc2)c1 | x | 19.5% | -2.0% | x
CCC(COC(=O)Nc1cccc(C)c1C)NC(=O)OCC(C)C (centres undefined) | 0.2 | 0.2% | 0.2% | -4.4%
O=C(CN1C(=O)NC2(CCCCC2)C1=O)N1CCN(S(=O)(=O)c2cccc(F)c2)CC1 | x | 8.9% | -2.8% | 1.0%
Clc1ccc(OCc2nc(-c3ccccn3)no2)c(Br)c1 | 10.8 | 0.5% | -0.9% | -13.2%
CC1(N=Cc2cc(Cl)ccc2O)COP(=O)(Nc2ccccc2)OC1 (centres undefined) | x | -24.2% | u | x
Cc1ccccc1C(=O)Nc1c2c(nn1C(C)(C)C)CS(=O)(=O)C2 | x | 6.7% | 0.9% | 1.6%
COc1ccc(C=CC(=O)c2ccc([N+](=O)[O-])cc2)cc1 | x | u | 6.8% | x
CC(Cl)C(=O)c1ccc2c(c1)CCN2C(=O)C1CC1 (centres undefined) | 1.4 | 0.7% | -3.6% | -6.6%
Cc1c(NC(=O)c2ccco2)cccc1-c1nc2cccnc2s1 | 3.6 | -0.9% | -9.2% | 11.9%
COC(=O)[C@]1(Cc2ccccc2)N[C@H](CN(C)S(=O)(=O)c2ccc(-c3ccccc3)cc2)[C@@H]2C(=O)N(Cc3ccccc3)C(=O)[C@@H]21 | x | -30.0% | 6.3% | x
CCN(CC)CCOc1ncnc2c1oc1ccccc12 | 0.8 | -1.3% | 2.3% | -1.7%
Cc1nc(C)c(C(=O)Nc2cccc(C)c2C)o1 | 3.1 | -6.5% | -5.6% | -10.5%
C[C@@H](Oc1ccccc1)c1nnn(Cc2ccccc2)c1-c1c([C@@H](C)Oc2ccccc2)nnn1Cc1ccccc1 | -8.6 | -0.4% | -0.4% | 21.6%
Cc1ccc(C(=O)NNC(=O)CCOc2cccc(C)c2)cc1 | x | 10.7% | -1.2% | x
CN(C)CC#CCC(O)(c1ccccc1)C1CCCCC1 (centres undefined) | x | 1.8% | -3.3% | -0.2%
Cc1ccc(-c2c(C(=O)NNC(=S)NCC3CCCO3)csc2C)cc1 (centres undefined) | 3.3 | -14.0% | 0.2% | 4.6%
CCOc1ccc(NC(=O)CSc2nnc(Cn3c(=O)sc4ccccc43)n2C)cc1 | -3.5 | -1.7% | -1.9% | -1.3%
CCN1CCN(C(=O)/C=C/c2c(F)cccc2Cl)CC1 | 4.9 | 15.1% | 1.9% | -12.9%
Cc1c(NC(=O)c2cccc(NC(=O)COc3cccc(Br)c3)c2)c(=O)n(-c2ccccc2)n1C | x | 1.1% | -2.0% | x
Cc1ccc(C2(C)NC(=O)N(CC(=O)NCCN3C(=O)S/C(=C\c4cccnc4)C3=O)C2=O)cc1 (centres undefined) | x | -17.6% | u | x
COc1ccc(NC(=O)COC(=O)CCCN2C(=O)c3ccccc3C2=O)cc1Cl | u | 1.1% | 0.4% | 0.4%
CC1CCCCC1NC(=O)Cn1c(CN2CCCCC2)nc2ccccc2c1=O (centres undefined) | -3.3 | -2.5% | u | -0.9%
CCc1c(C)sc(NC(=O)c2ccco2)c1C(=O)N1CCOCC1 | -10.1 | 6.0% | 7.0% | -0.4%
OCCN1CCN(CC/C=C2/c3ccccc3Sc3ccc(Cl)cc32)CC1 | x | 12.8% | 6.0% | x
COC(C(=O)N/N=C(\C)CC(=O)Nc1ccc(Cl)cc1C)c1ccccc1 (centres undefined) | 4.0 | -2.0% | -1.2% | -6.1%
COc1ccc(C2C(CC(=O)O)=C(Nc3ccccc3)C(=O)N2c2ccccc2)cc1 (centres undefined) | 2.6[21.1 µM] | 23.6% | -1.5% | -42.6%
CC(=O)Nc1ccc(NC(=O)COc2cc(C)cc3oc(=O)cc(C)c23)cc1 | x | -0.1% | -0.6% | 3.7%
CCOc1ccc(CCNC(=O)C2CC(=O)N(Cc3ccc(C)cc3)C2)cc1OCC (centres undefined) | x | -6.0% | 11.7% | x
Cc1ccc(NC(=O)CSc2nnc(CCC(=O)O)c(=O)[nH]2)cc1 | -0.8 | -9.0% | -4.1% | -0.1%
CNS(=O)(=O)c1ccc2c(c1)NC(=O)C1CCCN21 (centres undefined) | 4.6 | 1.3% | 1.4% | -11.4%
C/C(=N\NC(=O)C1(C)CC1(Br)Br)c1cccc(NC(=O)c2ccc(C)o2)c1 (centres undefined) | x | 15.3% | 0.4% | 20.9%
CC(C)(C)c1nnc(N/N=C/c2ccccc2)n(N)c1=O | 2.2 | -3.3% | 1.3% | -14.6%
O=C(c1cc(-c2ccc(Br)cc2)on1)N1CCCC1 | x | -11.4% | 0.2% | -60.0%
CN(CC(=O)Nc1c(Cl)cccc1Cl)C(=O)Cn1[nH]c(=O)c2ccccc2c1=O | x | -7.3% | 5.8% | x
CCn1nnnc1NCc1cccn1C | 0.4 | -8.5% | -3.2% | -10.6%
CC(NC(=O)COc1cccnc1[N+](=O)[O-])c1ccc(F)cc1 (centres undefined) | x | 1.4% | -2.7% | -8.1%
CS(=O)(=O)Nc1ccc(-c2cc(/C=C3\SC(N)=NC3=O)c[nH]c2=O)cc1 | x | -7.0% | 0.4% | -0.9%
COc1ccc(NS(=O)(=O)c2cc3c4c(c2)CCN4C(=O)CC3)c(OC)c1 | x | 6.9% | -1.7% | x
Cc1ccc(SCc2nnc(N)s2)cc1 | 0.9 | 4.1% | -2.6% | -26.8%
COC(=O)c1cccc(NC(=O)CCNC(=O)c2ccco2)c1 | x | 22.0% | 3.2% | 0.6%
CC(=O)c1ccccc1NC(=O)COC(=O)c1ccccc1NC(=O)c1ccccc1 | 1.4 | -2.5% | 1.7% | -19.5%
COc1ccc(CCNC(=O)C(=O)NCC2OCCN2S(=O)(=O)c2ccc(OC)cc2)cc1 (centres undefined) | x | 24.5% | -0.2% | 16.3%
Cc1cccc2[nH]c(SCC(=O)N3CCOCC3)nc12 | 13.4 | -15.6% | 6.0% | -26.7%
CC(C)(C)S(=O)(=O)c1cnc2c(-c3ccc(Cl)cc3)cnn2c1N | 5.5 | -4.6% | -4.5% | -5.4%
O=C(NCC1CCCO1)c1ccc(CS(=O)(=O)Cc2ccc(F)cc2)o1 (centres undefined) | 6.7 | -10.3% | 0.3% | -2.4%
CCc1cccc(CC)c1NC(=O)c1ccccc1 | -8.2 | 0.9% | -1.1% | -1.1%

Remaining list, next part
SMILES | GLA inh pH 4.5 | Rango dissoc inh | Rango complex inh | miR-21 reporter
CC(=O)c1ccc(S(=O)(=O)Nc2ccc(N3CCOCC3)cc2)cc1 | x | 26.0% | 0.8% | -1.0%
CCCCSc1nc(N)c(NC(=O)c2ccco2)c(=O)[nH]1 | 6.8 | 0.9% | 1.0% | -0.2%
CCN1CCN(C(c2ccc(OC)c(OC)c2)c2nnnn2C(C)(C)C)CC1 (centres undefined) | 0.7 | -12.9% | 7.4% | 0.3%
N#CCCN(C(=O)CSc1nc(-c2ccccc2)cn1N)c1ccc(F)cc1 | 0.3 | -9.9% | 0.6% | -0.1%
COC(=O)Nc1nc2c(C)cccc2s1 | 4.7 | -13.9% | 0.2% | -28.7%
CC1CCCCC1NC(=O)CN1C(=O)COc2ccccc21 (centres undefined) | x | 12.3% | -0.1% | 2.5%
